LASV entry inh – qHTS for Inhibitors of binding or entry into cells for Lassa Virus; AID 540256, 2011; Potency, µM (titrated, usually from 37.9 µM), for the others: top-dose activity change, negative = inhibition, actives largely listed as inhibitors; Lassa virus pseudotype entry inhibition, cell reporter; control for the full effect not named in the record; hit rate 1.2% among 300,000; active means well fitted inhibition curve with a large enough effect; inconclusive means small, poorly fitted or top-dose-only effect, or effect the other way; inactive means flat fitted curve, though single readings scatter; tested in HEK293 cells; further: on the % scale 0 is the no-effect control and ±100 the full control effect; nearly all actives have a fitted effect of over 50% in size; luciferase read-out
RE007 growth inh – qHTS Assay for Inhibitors of the HIV-1 protein Vpr; S. pombe RE007 Vpr strain, BacTiter-Glo ATP luminescence, 24 h; control for the full effect not named in the record; Potency, µM (highest dose often 92.2 µM), for the others: at the highest dose activity change, negative = less growth; hit rate 0.21% among 360,000; AID 651644, 2012; active = well fitted falling curve with a large enough effect; inconclusive = small, poorly fitted or top-dose-only effect; inactive = no such curve, though single readings can be large or run the other way;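 further: on the % scale 0 is the no-effect control and ±100 the full control effect; nearly all actives have a fitted effect of over 50% in size; the assay follows cell death caused by Vpr and the record does not say whether a fall means rescue or toxicity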
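Fission yeast RE007 carrying one integrated HIV-1 vpr copy, seeded at OD 0.01 in PMG+AL medium with 23 nL pinned compound. Grown 24 h at 30 degrees; viability read by BacTiter-Glo luminescence after 5 min.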
NS1 function inh – qHTS Assay for Inhibitors of Influenza NS1 Protein Function | S. cerevisiae slowed by influenza A NS1, growth recovery by OD600 | Potency, µM (highest dose often 46.1 µM), for inactives: top-dose activity, positive = more growth | hit rate 0.4% among 270,000 | AID 2326, 2010; further: actives are rising curves; nearly all actives have a fitted effect of over 50% in size
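Growth recovery, yeast-based: influenza A NS1 expressed in S. cerevisiae causes slow growth, and suppressors are detected by OD600. The parent strain without NS1 is used as positive control.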
SARS PLpro yeast – qHTS of Yeast-based Assay for SARS-CoV PLP | S. cerevisiae expressing SARS-CoV PLpro, growth rescue; control for the full effect not named in the record | Potency, µM (series often up to 32.9 µM), for inactives: at the highest dose activity, positive = growth rescue | hit rate 0.19% among 330,000; further: 0% is about no effect; nearly all actives have a fitted effect of over 55% in size; growth read by luminescence after 48 h
MARV entry inh – qHTS for inhibitors of binding or entry into cells for Marburg Virus | Potency, µM (doses to about 37.8 µM), without a hit: top-dose activity change, negative = inhibition, actives largely listed as inhibitors | AID 540276, 2011 | Marburg virus pseudotyped entry inhibition, cell reporter; control for the full effect not named in the record; about a third of the inactives were read at about 46 µM | hit rate 1.8% among 300,000; active = well fitted inhibition curve with a large enough effect; inconclusive = small, poorly fitted or top-dose-only effect, or effect the other way; inactive = flat fitted curve, though single readings scatter; tested in HEK293 cells; about a fifth of its hits are not listed in these tables; further: on the % scale 0 is the no-effect control and ±100 the full control effect; luciferase read-out
2A StopGo – High Throughput Screening for Foot and Mouth Disease Virus Antivirals | human cells with a luciferase reporter of 2A StopGo recoding; control for the full effect not named in the record | hit rate 1.2% among 410,000 | AID 1159524, 2015 | Potency, µM (doses to about 57.9 µM), without a hit: at the top dose signal change, negative = less light; active = well fitted falling curve with a large enough effect; inconclusive = small, poorly fitted or top-dose-only effect; inactive = no such curve, though single readings can be large or run the other way; tested in HEK293T cells; further: on the % scale 0 is the no-effect control and ±100 the full control effect; nearly all actives have a fitted effect of over 45% in size; luciferase light after 4 h
Cruzain inh Det – qHTS Assay for Promiscuous and Specific Inhibitors of Cruzain (with detergent) | Potency, µM, for inactives: max response, negative = inhibition, most hits filed as inhibitors | purified cruzain, Z-FR-AMC fluorescence, 0.01% Triton | AID 1478, 2009 | hit rate 0.43% among 200,000 | Cruzipain (Trypanosoma cruzi), P25779; active means well fitted curve in the direction sought with a large enough effect; inconclusive means small, poorly fitted or top-dose-only effect, or another doubt; inactive means no such curve, though single readings can be large; an effect the other way counts as inactive or inconclusive;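 further: plate controls were neutral wells for no effect and buffer without enzyme for full effect; nearly all actives have a fitted effect of over 40% in size; top concentration of the series not given in the record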
Target sequence (P25779 123-467 limits assumed): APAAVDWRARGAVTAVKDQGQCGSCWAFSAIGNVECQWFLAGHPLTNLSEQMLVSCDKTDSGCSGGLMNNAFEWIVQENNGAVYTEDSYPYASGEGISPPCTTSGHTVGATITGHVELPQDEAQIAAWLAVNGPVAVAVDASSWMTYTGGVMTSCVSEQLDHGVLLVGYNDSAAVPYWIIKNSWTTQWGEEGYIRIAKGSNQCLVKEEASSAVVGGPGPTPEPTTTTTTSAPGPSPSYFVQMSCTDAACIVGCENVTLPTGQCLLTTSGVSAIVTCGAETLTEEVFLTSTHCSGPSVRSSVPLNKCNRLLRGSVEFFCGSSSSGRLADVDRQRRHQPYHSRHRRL
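Detergent-containing arm of a paired screen for aggregation-based inhibition: 0.01% Triton X-100 present. Cruzain at 1.5 nM cleaved 2 uM Z-FR-AMC at pH 5.5 with 5 mM DTT; AMC fluorescence gain over 60 s measured activity.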
Cruzain inh noDet – qHTS Assay for Promiscuous and Specific Inhibitors of Cruzain (without detergent). Cruzipain (Trypanosoma cruzi), P25779. purified cruzain, Z-FR-AMC fluorescence, no detergent. Potency, µM, inactives show max response, negative = inhibition, actives largely listed as inhibitors. hit rate 2.3% among 200,000; active means well fitted curve in the direction sought with a large enough effect; inconclusive means small, poorly fitted or top-dose-only effect, or another doubt; inactive means no such curve, though single readings can be large; an effect the other way counts as inactive or inconclusive;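 further: plate controls were enzyme without inhibitor for no effect and buffer without enzyme for full effect; nearly all actives have a fitted effect of over 40% in size; top concentration of the series not given in the record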
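Purified cruzain at 1.5 nM, pre-incubated 15 min with compound at room temperature in 100 mM sodium acetate pH 5.5, 5 mM DTT, 0.00005% Triton X-100. Reaction started with 2 uM Z-FR-AMC; AMC fluorescence increase over 60 s gives rate.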
Active calls of the source: *; u = inconclusive; x = not tested or not shown; [ ] = another dose, or the depositor's remark. Unless noted, the call rests on the fitted dose curve; in most records, active means well fitted rising curve with a large enough effect; inconclusive means small, poorly fitted or top-dose-only effect; inactive means no such curve, though single readings can be large or run the other way. Potency means the concentration at half of the fitted maximal effect. An unsorted share of the library. Share with any hit: about 4.7%.

Fields – LASV entry inh | RE007 growth inh | NS1 function inh | SARS PLpro yeast | MARV entry inh | 2A StopGo | Cruzain inh Det | Cruzain inh noDet
- COc1ccc(OCCCC(=O)OCC(=O)NNC(=O)c2ccc([N+](=O)[O-])cc2)cc1
    19.4% | -11.5% | x | -4.2% | 11.2% | -11.9% | x | x
- CCCCC(c1nnnn1CC1CCCO1)N1CCN(c2cc(Cl)ccc2C)CC1 (stereo unspecified)
    u | -7.1% | -48.0% | -16.9% | u | -17.7% | -2.6% | 12.8%
- CCn1nnnc1SCC(=O)NCc1ccco1
    6.1% | 8.1% | 10.2% | -2.4% | 5.8% | 3.5% | -1.7% | 0.7%
- O=C(C[n+]1ccc(CCSc2ccc(F)cc2)cc1)c1ccccc1
    24.6%[46.1 µM] | 6.5% | x | -0.4% | 3.2%[46.1 µM] | -18.4% | x | x
- CNC(=O)NC(=O)CSc1ncc(C(F)(F)F)cc1Cl
    7.8% | -3.7% | -10.4% | -9.0% | 2.7% | 4.7% | 2.4% | -13.2%
- CCCCC(CC)CO (stereo unspecified)
    x | 6.3% | x | 4.7% | x | -18.7% | -2.3% | 2.6%
- CCOc1cc2[nH]c(=S)n(Cc3ccc(C)o3)c(=O)c2cc1OCC
    -8.1% | 1.7% | 0.9% | -2.5% | u | 3.9% | 2.6% | 26.0%
- O=C(c1ccsc1)N1CCCC(Nc2ccc(F)c(F)c2)C1 (stereo unspecified)
    x | 11.8% | 0.1% | -0.8% | x | -4.6% | x | x
- COc1cc(C(=O)Nc2nc(-c3ccc(F)cc3)cs2)ccc1OCC(=O)N1CCOCC1
    u | 1.4% | 18.1% | 17.3% | u | -62.5% | -4.9% | u
- Cc1ccc2c(c1)c1c(c(=O)n(-c3ccccc3C)c(=O)n1Cc1ccccc1F)n2C
    u | x | x | x | x | -25.0% | -1.8% | 7.3%
- Clc1ccc(N=c2ssnc2Cl)nc1
    x | u | 0.3% | 1.2% | x | -17.3% | x | x
- Cc1cccc(Oc2ccccc2NC(=O)CN2C(=O)NC3(CCCC3)C2=O)c1
    1.5% | 1.9% | x | -0.6% | -4.8%[46.1 µM] | -5.1% | x | x
- CC(=O)N1CCC(C(=O)Nc2ccc(S(=O)(=O)N3CCCC(C)C3)cc2)CC1 (stereo unspecified)
    12.2% | 11.4% | x | 1.8% | -27.1% | 16.6% | x | x
- CCOC(=O)c1c(C)sc2c1N(C(=O)CN(CC)CC)c1ccccc1S2
    -12.5% | -0.4% | 2.2% | 14.5% | -23.9% | -26.4% | -5.7% | -16.0%
- Cc1ccc(C(C(=O)NC2CCCC2)N(C(=O)CNC(=O)c2cccs2)c2cccnc2)o1 (stereo unspecified)
    19.9% | 2.5% | 11.8% | -20.6% | 2.0% | 4.5% | -0.5% | -3.7%
- O=C(CN1C(=O)CSc2ccc(S(=O)(=O)N3CCCCCC3)cc21)NCCc1ccccc1
    -22.2%[46.1 µM] | -4.2% | x | x | u | 4.3% | x | x
- COc1ccc(C/C(O)=C(\C#N)c2nc3ccccc3[nH]2)cc1OC
    -10.9% | 1.9% | -3.0% | -4.0% | -3.6% | 0.8% | -3.2% | 33.2%
- COC(=O)c1cccc2nc3c(C(C)O)cccc3nc12 (stereo unspecified)
    x | -21.5% | -9.2% | 0.9% | x | -8.6% | x | x
- CCN1C(=O)/C(=C/c2ccc(N3CCCC3)cc2)NC1=S
    -11.8% | -28.8% | u | -11.3% | u | -24.5% | -11.9% | -10.4%
- O=C(/C(=C/c1ccccc1)n1cncn1)c1ccc(Cl)cc1Cl
    14.2% | x | -50.4% | -79.0% | -4.6% | -21.2% | 1.0% | u
- O=C(Nc1ccc(Cl)cc1)OC1CN2CCC1CC2 (stereo unspecified)
    u | -10.3% | -3.0% | 0.2% | 9.9% | 51.0%[activator] | x | x
- Cc1ccc(NC(=O)c2cc([N+](=O)[O-])ccc2N2CCCC2)cc1
    13.3%[46.1 µM] | -17.8% | 5.9% | 0.7% | u | -13.8% | x | x
- Cn1c(CN2CCOCC2)nc2cc(NC(=O)c3ccccc3Cl)ccc21
    28.6% | -15.5% | 9.9% | 6.2% | 5.9% | x | -2.6% | 11.1%
- CCOC(=O)CCC(NC(=O)CCC(=O)NC(CCC(=O)OCC)C(=O)OCC)C(=O)OCC (stereo unspecified)
    8.4% | -0.8% | -15.4% | -5.7% | -15.8% | -11.9% | 0.7% | 12.3%
- O=C(O)CSc1nc2sc3c(c2c(=O)n1-c1ccccc1)CCC3
    -12.8% | -3.0% | 8.9% | 2.3% | -1.3%[46.1 µM] | 9.5% | x | x
- Cn1c(=O)c([N+](=O)[O-])c(NC2CCS(=O)(=O)C2)c2ccccc21 (stereo unspecified)
    3.9% | 6.6% | -3.0% | -1.8% | -5.6% | 1.8% | x | x
- COc1ccc(NC(=O)CN(c2ccccc2OC)S(=O)(=O)c2cccs2)cc1Cl
    -28.1% | 8.4% | x | 2.1% | u | -17.5% | x | x
- COc1ccc(OC)c(NC(=O)CSc2nc3n[nH]c(C)c3c(=N)n2-c2cccc(Cl)c2C)c1
    -6.2%[46.1 µM] | 6.6% | -4.5% | -0.5% | 17.8µM* | u | x | x
- COc1ccc(CCNC(=O)C(=O)NCC2OCCN2S(=O)(=O)c2ccc(OC)c(OC)c2)cc1OC (stereo unspecified)
    x | 15.8% | -11.8% | 3.7% | x | -28.4% | x | x
- C=CCNC(=O)c1ccc(C2SCC(=O)N2Cc2ccco2)cc1 (stereo unspecified)
    u | -8.3% | x | -2.1% | -12.4%[46.1 µM] | -2.5% | x | x
- Nc1nonc1-n1nnc(C(=O)N/N=C/c2ccc(Cl)cc2)c1-c1ccc2c(c1)OCO2
    u | 6.4% | 8.7% | 0.3% | -15.6%[46.1 µM] | -16.4% | x | x
- CCN(CC(=O)Nc1ccc2c(c1)OCCO2)CC(=O)Nc1ccc(C)c([N+](=O)[O-])c1
    -16.4%[46.1 µM] | -23.2% | x | 3.7% | u | 28.4% | x | x
- COc1ccc(CN2COc3ccc4c(-c5ccccc5)cc(=O)oc4c3C2)cc1
    5.0%[46.1 µM] | x | x | x | -0.9%[46.1 µM] | -23.0% | 3.8% | 8.7%
- Cc1cc(C(=O)CSc2nc3ccccc3o2)c(C)n1C1CC1
    u | -5.9% | -28.7% | -21.3% | u | 8.6% | -17.8% | -8.9%
- C=CCn1c(SCC(=O)NC(=O)c2cccc([N+](=O)[O-])c2)nnc1-c1ccccc1
    19.1% | 1.1% | 7.5% | -9.4% | u | -15.4% | -4.5% | -16.3%
- COC(=O)c1ccc(CSc2nnc(-c3c[nH]c4ccccc34)n2-c2ccccc2)cc1
    u | -17.6% | -40.7% | 1.1% | u | -21.3% | -3.0% | u
- COc1ccc(NC(=O)CN(c2ccc(OC)c(Cl)c2)S(=O)(=O)c2ccccc2)c(OC)c1
    x | 0.1% | u | 0.3% | x | -13.0% | x | x
- COc1ccc(N(C)S(=O)(=O)c2cccc(C(=O)NCC3CCCCC3)c2)cc1
    u | 10.2% | x | -1.3% | u | -4.9% | x | x
- Cc1cccc(C)c1NC(=O)CNC(=O)CCC(=O)N1CCOCC1
    -0.2% | -3.7% | x | -1.7% | -5.1% | -7.4% | x | x
- O=C(CN(Cc1ccc(F)cc1)C(=O)CNS(=O)(=O)c1ccc(F)cc1)NCc1ccco1
    -9.4% | 0.6% | 9.6% | -0.8% | -30.9% | 7.5% | x | x
- COc1ccc(CCNC(=O)c2cc3c(=O)n4ccccc4nc3n(CCN3CCOCC3)c2=N)cc1
    u | -4.9% | 8.4% | 16.7% | 2.82µM* | -25.5% | x | x
- COC(=O)c1cc(NC(=S)NCc2ccc(Cl)cc2)cc(C(=O)OC)c1
    -26.2% | 11.7% | 7.8% | -22.6% | -27.8% | u | -11.0% | 3.8%
- CN(C)c1cccc(C(=O)OCC(=O)N(C)c2ccccc2)c1
    13.7%[46.1 µM] | 2.6% | -8.1% | -2.3% | u | 4.3% | x | x
- Cc1ccc(SCCN2CCN(CC(C)C)CCC2=O)cc1
    x | -3.4% | -9.4% | 4.6% | x | 27.6% | x | x
- O=C(NCCCN1CCN(c2ccc(F)cc2)CC1)C1COc2ccccc2C1 (stereo unspecified)
    8.3%[46.1 µM] | x | x | x | x | -24.2% | -0.3% | -10.4%
- OCC1(CCc2ccccc2)CCN(Cc2cccn2-c2cccnc2)CC1
    -4.1% | -0.5% | -2.1% | -1.0% | u | -27.0% | x | x
- CCn1cc(/C=C2\SC(=O)N(CC(=O)Nc3ccc4c(c3)OCO4)C2=O)c2ccccc21
    18.3% | 11.1% | 2.1% | -0.5% | -11.1% | 0.2% | 0.2% | 3.16µM*
- CCOc1ccc(C(=O)Nc2ccc(-n3nncc3-c3ccc(OC)cc3)cc2)cc1
    u | x | x | x | x | u | 0.6% | u

Record cards (already shown):
CCn1cc(/C=C2\SC(=O)N(CC(=O)Nc3ccc4c(c3)OCO4)C2=O)c2ccccc21 reads LASV entry inh = 18.3%; RE007 growth inh = 11.1%; NS1 function inh = 2.1%; SARS PLpro yeast = -0.5%; MARV entry inh = -11.1%; 2A StopGo = 0.2%; Cruzain inh Det = 0.2%; Cruzain inh noDet = 3.16µM*
Cc1cc(C(=O)CSc2nc3ccccc3o2)c(C)n1C1CC1 reads LASV entry inh = u; RE007 growth inh = -5.9%; NS1 function inh = -28.7%; SARS PLpro yeast = -21.3%; MARV entry inh = u; 2A StopGo = 8.6%; Cruzain inh Det = -17.8%; Cruzain inh noDet = -8.9%

Screening results deposited in PubChem by National Center for Advancing Translational Sciences (NCATS).
